# Mtb hypoxia rep – reduces hypoxia-regulated biosensor signal in M. tuberculosis. AID 1159583. fluorescence inhibition, % (concentration not given with the values). M. tuberculosis hypoxia-regulated fluorescent reporter, fluorescence. 300,000 tested, 0.1% active;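 active means 35 to 45% if threefold the growth effect, above 45% if 1.5-fold the growth effect; inactive means the rest, general growth blockers included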;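 further: wells of about 50 µL received 100 nL stock; 0% = vehicle wells and 100% = reference inhibitor wells; whole bacteria with a GFP reporter of the hypoxia response; strong numbers were not always called active; many hits fall short of the cut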
# BJeLR lethal – kills HRASV12-expressing BJeLR cells. BJeLR (HRASV12) viability, CellTiter-Glo ATP luminescence, 48 h; reference of the scale not given here. inhibition, % (no concentration beside the values). 300,000 tested, 0.17% active;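 active means replicate mean above 50%; inconclusive means above 50% but judged a plate artefact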;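 further: 50 nL library stock added to about 25 µL; numbers are from one replicate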
# Sa RN4220 lethal – S. aureus RN4220 growth inhibition; OD600, 16 h; inhibition, % (test concentration not listed); 330,000 tested, 0.33% active;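 active means z-score of -3 or lower and OD600 up to 0.18 on both plates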;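 further: plate controls were untreated cells for no effect and reference antibiotic for full effect; stock transfer was 100 nL into about 80 µL; one replicate is shown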
# Sa ugtP lethal – growth inhibition of S. aureus ugtP deletion strain; S. aureus RN4220 ugtP deletion, OD600 growth, 16 h; some inactives read as strong as hits; growth inhibition, % (no concentration beside the values); 330,000 tested, 0.54% active;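 active means z-score under -3 and OD600 up to 0.15 on both plates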;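 further: plate controls were untreated wells for no effect and antibiotic for full effect; wells of about 80 µL received 100 nL stock; the first replicate is given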
# Bead autofluor – flagged as autofluorescent in microsphere protease counterscreen | 360,000 tested, 3.1% active | fluorescence intensity (concentration not given with the values) | compound autofluorescence counterscreen, microsphere flow cytometry; stronger effect = higher value;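 active means at least 3 SD above the mean of all compounds, about 16000 in these data; inconclusive means too few beads counted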;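 further: 100 nL of 1 mM stock went into each well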
# PrP 5UTR inh – suppresses PrP 5' UTR mRNA reporter expression; 340,000 tested, 0.35% active; inhibition, % (no concentration beside the values); cell-based PrP 5' UTR mRNA reporter, plate reader;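 active means every replicate at 50% or more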;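 further: 0 = median of the neutral control wells; tested in H4 reporter cells; numbers are from one replicate; inactives centre near -14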
# Mtb hypoxia rep growth – also measured in Mtb hypoxia rep; calls as there; growth inhibition, %; measured here: M. tuberculosis growth (absorbance);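 0% = vehicle and 100% = reference antibiotic; read after six days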
# Starred values were filed as active, the others as inactive; ? = inconclusive; . = no result given; & = joins results of further samples.
# Under each structure – Mtb hypoxia rep	Mtb hypoxia rep growth	BJeLR lethal	Sa RN4220 lethal	Sa ugtP lethal	Bead autofluor	PrP 5UTR inh
> COc1ccc(N(C)S(=O)(=O)c2cccc(C(=O)N3CCN(S(=O)(=O)c4ccc(C)cc4)CC3)c2)cc1
    11	-4	2	3.6	11	5911	-4
> CCOC(=O)N1CCC(NCCNC(=O)c2ccccc2)CC1
    7&18	3&6	-19	4.3&8.2	-2&-2	9901&3069	-19&-14
> COc1cc(OC)cc(C(=O)NCCS(=O)(=O)N2CCN(Cc3ccccc3)CC2)c1
    -11	-2	2	-1.6	2	5477	-12
> CCOc1ccc(CNC(=O)CCCn2nc(C)c3c(C)n(-c4ccc(C)cc4)nc3c2=O)cc1
    .	.	4	.	.	5590	-17
> CCCCCC(=O)Nc1cccc(C2=NOC3(C2)C[C@H](C(N)=O)N(C(=O)c2ccccc2)C3)c1 (some centres undefined)
    .	.	-1	.	.	3436	-4
> NC(=O)c1ccc2c(c1)OCCO2
    8	9	-7	25	18	2335	-15
> CCCC(C(=O)NCc1ccco1)N(C(=O)CNS(=O)(=O)c1ccccc1)c1ccccc1OC (centres undefined)
    .	.	2	2.9	-7	4648	2
> Cc1cc(NC(=O)CN2C(=O)NC(CC(C)C)C2=O)ccc1Br (centres undefined)
    1	2	.	-0.9	-6	.	-7
> COc1ccc(OC(=O)c2cccc([N+](=O)[O-])c2)c(C(=O)/C=C/c2cccs2)c1
    .	.	1	8.2	1	2588	-20
> O=C(NCc1ccc(Cl)cc1)C1CCN(S(=O)(=O)c2ccc(N3CCCC3=O)cc2)CC1
    8	5	2	1.4	14	6918	-25
> Cc1cccc(-c2nc(CS(=O)CC(=O)N3CC(C)CC(C)C3)c(C)o2)c1 (centres undefined)
    8	-1	7	8.9	9	3951	-13
> Cc1nnc(SCC(=O)c2ccc(Br)cc2)s1
    0	-8	2	5.2	8	3862	-11
> O=[N+]([O-])/C=C/c1cn(Cc2ccccc2)c2ccccc12
    11	7	0	35	19	3499	18
> O=C(O)C1=C[C@H](c2cccs2)C[C@H](OCc2ccc(CO)cc2)O1
    .	.	4	.	.	3964	-9
> COc1ccc(/C=C2\C(=O)OCc3cc(OC)c(OC)cc32)cc1OC
    .	.	-18	.	.	1966	18
> O=[N+]([O-])c1ccc(-c2nc(Nc3ccc(O)cc3)c3ccccc3n2)cc1
    -4	-5	-2	-9.3	0	3634	-30
> C=C(C)CSc1nc2nc(C)cc(C)n2n1
    11	9	2	7.3	9	7455	-13
> S=C(NCCN1CCOCC1)NN=Cc1ccccc1
    8	11	.	5.8	-1	.	.
> CCN1CCN(c2ncnc3scc(-c4ccc(OC)cc4)c23)CC1
    5	9	2	-1.4	14	3700	-15
> Cc1oc(-c2cccs2)nc1CS(=O)CC(=O)NC1CCCCCC1 (centres undefined)
    -1	3	-10	3.4	0	6689	-9
> O=C(O)CN1CCCCCC1=O
    -8	8	-2	2.6	0	4249	-25
> CCN(CC(=O)NCc1ccc(Cl)cc1)C(=O)COc1cccc(Cl)c1
    -7	10	-3	-2.6	-5	6886	-11
> CCn1c(CCn2ccnc2C)n[nH]c1=S
    2	5	18	4.2	4	18972*	-8
> COc1ccc(N2CCN(c3ccc(NC(=O)/C=C\C(=O)O)cc3)CC2)cc1
    9	8	-1	6.3	8	3490	-3
> N/C(=N\OC(=O)/C=C/c1ccccc1)c1ccccn1
    .	.	7	.	.	2740	-82
> CC1CCCN(S(=O)(=O)c2ccc(NC(=O)Cn3nnc(-c4ccccc4F)n3)cc2)C1 (centres undefined)
    2	7	2	2.6	-1	7901	-19
> COC(=O)CCC/C=C1\SC[C@@H](NC(=O)c2ccccc2)C1NC(C)=O (some centres undefined)
    19	3	0	7.5	2	2180	2
> N#CC(=Cc1ccc(Cl)cc1)c1nc2ccccc2o1
    5	4	.	1.8	-21	.	.
> COc1ccc(-n2c(SCC(=O)N(C)c3ccccc3)nc3c([nH]c4ccccc43)c2=O)cc1OC
    -11	-18	0	6.6	-4	5213	-5
> CCOc1ccc(CN(C)CC(=O)NCc2ccccc2)cc1
    8	8	-8	2.0	1	6357	-23

# Following part.
# Under each structure – Mtb hypoxia rep	Mtb hypoxia rep growth	BJeLR lethal	Sa RN4220 lethal	Sa ugtP lethal	Bead autofluor	PrP 5UTR inh
> COc1cc(CN2CCCCCC2)cc(OC)c1O
    8	2	2	3.3	14	3129	-11
> COc1ccc(N2CCN(S(C)(=O)=O)CC2)cc1
    3	6	0	7.4	8	?	-32
> C/C(=N\NC(=O)c1c[nH]c2ccccc12)c1ccc(C)s1
    .	.	11	.	.	?	-28
> O=C(c1cc(Br)ccc1Cl)N1CCN(c2ccccn2)CC1
    -4	1	4	2.7	2	3812	-15
> Cc1nc(NC(=O)c2cccc(-c3cc4ccccc4oc3=O)c2)ccc1Br
    3	12	7	6.4	1	9407	-21
> COc1ccc(OCC(O)CN(C)C(=O)C=Cc2cccc([N+](=O)[O-])c2)cc1 (centres undefined)
    -2	3	.	10	5	.	.
> O=C(CSc1ccc(S(=O)(=O)N2CCOCC2)cn1)Nc1ccc(F)c(F)c1
    0	4	.	-0.9	-10	?	-7
> O=C(COC(=O)c1ccc(Cl)nc1)Nc1ccc(Cl)cc1
    1	3	.	0.6	4	5487	-22
> COc1ccccc1C1N(c2ccc(Cl)cc2)C(=O)C2CCCN21 (centres undefined)
    6	6	-1	4.9	-5	10633	-41
> CC(=O)c1cccc(OCCN2C(=O)NC(C)(C)C2=O)c1
    8	1	8	2.4	4	9543	.
> CC1CCCC(NC(=S)NC(=O)c2ccccc2Br)C1C (centres undefined)
    18	9	3	-3.0	37	2140	-15
> COc1ccccc1NC(=O)c1sc2ncn(Cc3cccc4ccccc34)c(=O)c2c1C
    12	11	-4	-3.3	4	2780	-11
> COC(=O)C1=C(N)Oc2cc(C)n(Cc3cccnc3)c(=O)c2C1c1cc(OC)ccc1OC (centres undefined)
    11	2	-11	17	16	?	-10
> N#CCCn1cc(C=NO)c(-c2cccc([N+](=O)[O-])c2)n1
    -5	11	.	7.1	8	.	.
> O=C(N/N=C/c1cc([N+](=O)[O-])ccc1Cl)c1cnccn1
    .	.	-13	.	.	5426	-8
> COc1ccc(S(=O)(=O)N(C)CC(=O)NCc2ccc3c(c2)OCO3)cc1
    -7	-4	2	1.9	11	3815	-13
> CCN(CC(=O)Nc1ccc(C(=O)OC)cc1)C1CCCCC1
    3	2	5	3.8	1	5665	-21
> Cc1nn(CC(=O)Nc2ccc3c(c2)nc(CN2CCCCC2)n3C)c(=O)c2ccccc12
    .	.	4	4.4	0	4231	-2
> CCOc1ccc(CCNC(=O)CS(=O)Cc2nc(-c3ccc(C)cc3)oc2C)cc1OCC (centres undefined)
    1	8	-5	-2.8	-9	.	-9
> CCN(CC)C(=O)CSc1nnc(CSc2ncccn2)n1C
    14	5	6	2.2	-1	4066	-4
> Cc1cc(=O)oc2cc(NC(=O)c3cc4ccccc4o3)ccc12
    .	.	-13	1.5	2	.	.
> Cc1ncccc1C(=O)N1CCCC(CNC(=O)C2(c3ccc(Cl)cc3)CC2)C1 (centres undefined)
    4	-12	5	0.4	10	4423	-9
> CCOP(=O)(OCC)C(Nc1ccccc1)c1ccco1 (centres undefined)
    10	9	-2	1.8	1	3139	-18
> Cc1cccc(C=NNC(=O)NC23CC4CC(CC(C4)C2)C3)n1
    5	15	.	2.9	-5	.	.
> CCCNc1nc(Cl)nc(NC(C)(C)C)n1
    17	7	2	2.5	1	4211	-18
> CC(=O)NCC(=O)OCN1C(=O)c2ccccc2C1=O
    .	.	5	0.3	3	4724	6
> Cc1cccc(NC(=O)Cn2c(=O)n(Cc3ccco3)c(=N)c3c4c(sc32)COC(C)(C)C4)c1
    .	.	2	1.6	-6	2685	-15
> CCN1C(=S)NC(CCc2ccccc2)C(C(=O)OC)C1C (centres undefined)
    8	10	.	6.3	4	.	.
> CCN(CC)c1ccc(C=NNC(=O)c2cc3ccccc3[nH]2)cc1
    4	4	.	1.4	-3	.	.
> COc1cc(/C=C2/NC(=O)NC2=O)cc(Br)c1OCc1ccccc1
    .	.	1	.	.	4753	-5

# Remaining list, next part:
# Under each structure – Mtb hypoxia rep	Mtb hypoxia rep growth	BJeLR lethal	Sa RN4220 lethal	Sa ugtP lethal	Bead autofluor	PrP 5UTR inh
> Cc1cc(C)nc(N(C#N)Cc2cccc(Cl)c2)n1
    21	6	0	5.0	2	3165	0
> Cc1cccc(OCCn2c(=O)n(C)c3ccccc32)c1
    9	11	18	2.4	8	6046	-97
> CN(Cc1ccon1)C(=O)CC1C(=O)NCCN1Cc1ccc(Cl)c(F)c1 (centres undefined)
    2	9	-8	-1.4	-1	5642	-16
> COc1ccc(/C=C/C(=O)Oc2cccc(/C=N/NC(=O)COc3c(C)cccc3C)c2)cc1
    .	.	-3	.	.	2420	-15
> O=S(=O)(NCc1ccccc1)c1ccc(-c2cnc(C3CC3)o2)cc1
    -1	7	-3	3.3	1	6155	-11
> O=C(CN1CCN(S(=O)(=O)c2ccc(Br)cc2)CC1)Nc1ccc(F)cc1F
    .	.	1	1.5	-5	2272	-14
> COc1ccc(N2CCN(C(=O)c3cccnc3SCc3cccc(Br)c3)CC2)cc1
    3	-4	6	15	4	3765	-9
> Cc1ccc(NC(=O)CSc2nc(N)c3cc4c(nc3n2)CCCC4)cc1
    .	.	-1	.	.	7696	-9
> COc1ccc(OCCOc2ccc(/C=C3\C(=N)N4N=C(C)SC4=NC3=O)cc2)cc1
    -9	6	.	2.1	-1	6088	-15
> O=C(CCn1cncn1)N1CCCC(N2CCN(c3ccc(F)cc3)CC2)C1 (centres undefined)
    11	9	-5	5.3	1	6571	-13
> CCN(CC(=O)Nc1c(F)cccc1F)C(=O)c1cccc(-n2cccc2)c1
    6	-2	3	2.6	2	4924	-10
> BrC(=C\c1ccccc1)/C=N/Nc1nc(N2CCOCC2)nc(N2CCOCC2)n1
    .	.	-5	.	.	1937	-7
> Cn1nccc1CNC(=O)c1ccnn1C
    -9	-5	-4	-3.0	0	2433	-23
> O=C(COC(=O)c1cccnc1SCC(=O)NCc1ccccc1)NCc1ccccc1
    -5	11	0	4.5	-10	3522	-24
> COc1ccc(-c2nc(C)c(C(C)=O)n2O)cc1OC
    -5	3	-2	13	8	3052	-27
> CCOC(=O)c1c(-c2ccccc2)oc2ccc(OCC(=O)O)cc12
    4	0	-8	5.2	2	4838	-24
> Cc1c(NC(=O)C2CCN(S(=O)(=O)c3cccs3)CC2)c(=O)n(-c2ccccc2)n1C
    -6	-3	4	-0.8	-2	3606	-10
> Cc1ccc(CN(C)C(=O)c2ccc(S(=O)(=O)N3CCCCCC3)cc2)o1
    10	14	.	1.1	5	5610	-7
> COCCN(CCOC)S(=O)(=O)c1ccc(C(=O)Nc2nc(C)c(C(C)=O)s2)cc1
    11	4	1	2.3	9	11083	.
> COC(=O)c1nn(-c2ccc(OC)cc2)c(=O)cc1Oc1cccc(Cl)c1
    9	3	1	5.8	-4	20164*	-9
> CCOC(=O)C1(CC2CCCCO2)CCN(C(=O)Nc2ccccc2SC)CC1 (centres undefined)
    7	-4	4	4.2	6	3336	-14
> CCn1ncc(Br)c1C(=O)Nc1sc2c(c1C(N)=O)CCC2
    -4	10	-5	3.1	-22	12028	-3
> COc1ccc(C2C(C#N)=C(N)OC(C(C)(C)C)=C2C#N)cc1OC (centres undefined)
    8	8	-8	-11	-8	3350	13
> CC(=O)Nc1ccc(C(=S)NCCCO)cc1
    -4	1	-1	-2.5	4	4336	-16
> CC1(C)CC2CC(C)(CN2S(=O)(=O)c2ccc(C(=O)Nc3cccc(S(=O)(=O)N4CCOCC4)c3)cc2)C1 (centres undefined)
    .	.	-14	.	.	12140	-17
> O=C1c2cc(N3CCCC3)c([N+](=O)[O-])cc2C(=O)N1c1ccccc1
    9	0	-15	1.0	1	2490	-26
> Cc1cc(C([O-])=C(C(=S)Nc2ccc(F)cc2)[n+]2ccccc2)c(C)n1-c1ccc(F)cc1
    -8	12	.	-3.4	0	3978	4
> COc1ccc(NC(=S)SC)cc1OC
    16	0	5	6.7	1	2361	4
> COCCN(Cc1ccccc1)C(=O)c1cccc(S(=O)(=O)N2CCCc3ccccc32)c1
    5	5	.	4.7	1	6382	-1

# Bioassay records from PubChem BioAssay.
